Source: PubChem
PK Bst – pyruvate kinase (B. stearothermophilus) modulation; partly purified Bacillus stearothermophilus pyruvate kinase, luminescence ATP production; ribose 5-phosphate activator present at AC10; Potency, µM; 1.2% of 51,000 active; in the data active means potency below about 11 µM; inconclusive means mostly about 12 µM to 25 µM; inactive means weaker than that;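 the screen sought inhibitors and activators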;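 further: potency means the concentration at half of the fitted maximal effect; scaled between full activation by ribose 5 phosphate and full inhibition by luteolin; about four in five hits inhibit and the cells do not say which; series up to 57 µM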
YjeE inh – YjeE (TsaE) inhibition, E. coli; P0AF67; purified YjeE, fluorescence polarisation of a bound ADP probe; Potency, µM; 0.05% of 71,000 active; AID 605; active = well fitted falling curve; inconclusive = weaker or top-dose-only fall, or a rising curve; inactive = flat or poorly fitted curve;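 further: top concentration of the series not given in the record; excess ADP was the control for the full effect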
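Purified YjeE (10 uM) with BODIPY Texas Red-labeled ADP probe (2 uM); compounds pin-transferred, 15 min at room temperature. Binding inhibition read as decreased fluorescence polarization; ADP titration as control.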
Starred values were filed as active, the others as inactive. Some of the compounds tested; count on the stated rates, not on these rows.

For CCC(C)N(C(=O)Cn1nnc2ccccc21)C(C(=O)NCc1ccco1)c1cccc(OC)c1 (stereo not given) the results were PK Bst >57 and YjeE inh inactive.
For O=C(CSc1n[nH]c(-c2ccco2)n1)Nc1sc2c(c1C(=O)Nc1ccccc1)CCCC2 the results were PK Bst >57 and YjeE inh inactive.
For CCCN1CC=C2C(C#N)=C(N)C(C#N)(C#N)C(c3cc(OC)ccc3OC)C2C1 (stereo not given) the results were PK Bst >57 and YjeE inh inactive.
CC(C)N(Cc1nc(-c2ccccc2)no1)S(=O)(=O)c1ccccc1 was read as YjeE inh inactive.
O=c1cc(Nc2ccc3c(c2)OCCO3)[nH]c(=O)n1-c1ccc(Cl)cc1 was read as YjeE inh inactive.
For Nc1sc2c(c1C(=O)NC1CCS(=O)(=O)C1)CCCC2 (stereo not given) the results were YjeE inh inactive.
For CCOc1ccccc1N1CC(C(=O)Nc2ccccc2N2CCOCC2)CC1=O (stereo not given) the results were PK Bst >57 and YjeE inh inactive.
Screening Cc1cc(C)nc(SCC(=O)N2CCC(C(N)=O)CC2)n1 returned PK Bst >57 and YjeE inh inactive.
Screening CCCSc1nc2c(cnn2-c2ccc(F)cc2)c(=O)[nH]1 returned YjeE inh inactive.
`O=C(CN1CCOCC1)Nc1cc(Cl)ccc1Cl` gave YjeE inh inactive.
Screening Cc1cccc(-n2c(CNC(=O)c3ccc(S(=O)(=O)N4CCCC4)cc3)n[nH]c2=S)c1 returned PK Bst >57 and YjeE inh inactive.
Screening Cc1ccc(CN2C(=O)CCC2C(=O)NCCCN2CCOCC2)cc1 (stereo not given) returned PK Bst >57 and YjeE inh inactive.
`CCn1cc(C(=O)Nn2cnnc2)c(=O)c2ccc(C)nc21` gave PK Bst >57 and YjeE inh inactive.
`Cc1noc(C)c1CSc1nnnn1-c1ccc(Cl)cc1` gave PK Bst >57 and YjeE inh inactive.
`Cn1c(NC(=O)c2ccc(F)c(F)c2)cc(=O)n(C)c1=O` gave YjeE inh inactive.
O=C(O)C1CCCCC1C(=O)NC1CCCCC1 (stereo not given) was read as PK Bst >57 and YjeE inh inactive.
CCOC(=O)C1CCN(S(=O)(=O)c2c(C)[nH]c(=O)[nH]c2=O)CC1 was read as PK Bst >57 and YjeE inh inactive.
Screening CCOC(=O)Cn1nc(-c2ccccc2)ccc1=O returned PK Bst >57 and YjeE inh inactive.
For COc1cccc(C2C(C(=O)c3sc(C)nc3C)=C(O)C(=O)N2CCN(C)C)c1OC (stereo not given) the results were PK Bst >57 and YjeE inh inactive.
For Cc1cccc2cc(CN(CC3CCCO3)S(=O)(=O)c3ccccc3)c3nnnn3c12 (stereo not given) the results were PK Bst >57 and YjeE inh inactive.
COc1ccc(S(=O)(=O)N2CCC(C(=O)Nc3cccc(C(C)=O)c3)CC2)cc1C was read as PK Bst inconclusive and YjeE inh inactive.
CCc1ccc2[nH]c(=O)c(C(c3nnnn3Cc3ccccc3)N3CCOCC3)cc2c1 (stereo not given) was read as PK Bst >57 and YjeE inh inactive.
CCn1ncc2c(OCc3ccc(C#N)cc3)cc(C)nc21 was read as YjeE inh inactive.
`CCOC(=O)Cn1c(CN2CCOCC2)nc2c1c(=O)[nH]c(=O)n2C` gave YjeE inh inactive.
Screening CCn1nnnc1SCC(=O)N1c2ccccc2CCc2ccccc21 returned PK Bst >57 and YjeE inh inactive.
O=C1CC(N2CCN(c3ccccc3Cl)CC2)C(=O)N1c1ccc(F)cc1 (stereo not given) was read as YjeE inh inactive.
COc1ccc(C2C=C(c3ccc(C)cc3)Nc3ncnn32)cc1 (stereo not given) was read as PK Bst inactive.
`CCn1c(=O)c2c(nc(SCC(=O)NCC3CCCO3)n2C)n(C)c1=O` (stereo not given) gave PK Bst >57 and YjeE inh inactive.
CCOc1ccc(C(=O)Nc2c3c(nn2-c2ccc(C)cc2)CS(=O)C3)cc1OCC (stereo not given) was read as YjeE inh inactive.
Screening Cc1nc(C)c2c(c1C(F)(F)F)-c1ccccc1C2(F)F returned PK Bst >57 and YjeE inh inactive.
Screening Cc1nc2ccc(S(=O)(=O)NCC(=O)O)cc2s1 returned PK Bst >57 and YjeE inh inactive.
For Cc1ccc(C(=O)CSc2nnc(COc3cccc4cccnc34)o2)cc1 the results were PK Bst >57 and YjeE inh inactive.
`O=C(NCCc1ccncc1)c1ccccc1F` gave PK Bst >57 and YjeE inh inactive.
For O=C(CSCC(=O)NC1CC1)Nc1ccccc1 the results were YjeE inh inactive.
`CCOC(=O)CN1CC23C=CC(O2)C(C(=O)Nc2ccc(F)cc2)C3C1=O` (stereo not given) gave PK Bst >57 and YjeE inh inactive.
Screening COc1ccccc1CNC(=O)c1cc2c(s1)CS(=O)(=O)C2 returned PK Bst >57 and YjeE inh inactive.
O=C(NCCCN1CCc2ccccc2C1)C1CCN(S(=O)(=O)N2CCCC2)CC1 was read as PK Bst >57 and YjeE inh inactive.
`COC(=O)c1ccc(C(c2c(N)n(CC(C)C)c(=O)[nH]c2=O)N2CCN(c3ccccc3)CC2)cc1` (stereo not given) gave PK Bst >57 and YjeE inh inactive.
For Cc1cc(C)cc(OCC(=O)NCC2CCCO2)c1 (stereo not given) the results were YjeE inh inactive.
Screening Cc1cc(=O)n2nc(N3CCC(C(=O)NCCC4=CCCCC4)CC3)sc2n1 returned PK Bst >57 and YjeE inh inactive.
`CCc1ccc(NC(=O)c2cc(C)on2)cc1` gave PK Bst inactive and YjeE inh inactive.
COc1cccc(OCC(O)CN2CC(C)CC(C)C2)c1 (stereo not given) was read as PK Bst >57 and YjeE inh inactive.
`COc1ccc(O)c(-c2[nH]ncc2C(=O)c2ccccc2)c1` gave PK Bst >57 and YjeE inh inactive.
For COC(=O)c1cccc(NC(=O)C(C)N2C(=O)c3ccccc3C2=O)c1 (stereo not given) the results were YjeE inh inactive.
`O=C(CN1CCN(C2CCCCC2)CC1)Nc1ccccc1N1CCCCC1` gave PK Bst >57 and YjeE inh inactive.
Screening CCCCc1ccc(C(=O)NC(C(=O)O)C(C)C)cc1 (stereo not given) returned PK Bst >57 and YjeE inh inactive.
Cc1ccc(N(C(C)C(=O)O)S(=O)(=O)c2c(C)[nH]c(=O)[nH]c2=O)cc1 (stereo not given) was read as YjeE inh inactive.
Cc1cc(C)n(-c2nc3c(c(=O)[nH]c(=O)n3C)n2CCc2ccccc2)n1 was read as PK Bst >57 and YjeE inh inactive.
For Cc1cc2cc(CN(CCCN3CCOCC3)C(=O)NC3CCCCC3)c(=O)[nH]c2cc1C the results were PK Bst >57 and YjeE inh inactive.
`CC(=O)NC(C)c1nc2ccccc2n1Cc1ccccc1F` (stereo not given) gave PK Bst >57 and YjeE inh inactive.

The last 5 records of the part above come first, to join the parts.
Screening CCCCc1ccc(C(=O)NC(C(=O)O)C(C)C)cc1 (stereo not given) returned PK Bst >57 and YjeE inh inactive.
Cc1ccc(N(C(C)C(=O)O)S(=O)(=O)c2c(C)[nH]c(=O)[nH]c2=O)cc1 (stereo not given) was read as YjeE inh inactive.
Cc1cc(C)n(-c2nc3c(c(=O)[nH]c(=O)n3C)n2CCc2ccccc2)n1 was read as PK Bst >57 and YjeE inh inactive.
For Cc1cc2cc(CN(CCCN3CCOCC3)C(=O)NC3CCCCC3)c(=O)[nH]c2cc1C the results were PK Bst >57 and YjeE inh inactive.
`CC(=O)NC(C)c1nc2ccccc2n1Cc1ccccc1F` (stereo not given) gave PK Bst >57 and YjeE inh inactive.
Screening COc1ccc([N+](=O)[O-])cc1N returned YjeE inh inactive.
For COC(=O)c1cccc(NC(=O)CSc2nnc(COc3ccccc3)n2C)c1 the results were PK Bst >57 and YjeE inh inactive.
For CC(C)NC(=O)c1ccc2c(c1)N(CC(=O)N1CCOCC1)C(=O)C(C)(C)O2 the results were PK Bst >57 and YjeE inh inactive.
Screening O=C(CCCC(=O)N(CC(=O)NC1CCCCC1)CC1CCCO1)Nc1ccccn1 (stereo not given) returned PK Bst >57 and YjeE inh inactive.
For O=C(N1CCN(c2ccccn2)CC1)N1c2ccccc2Sc2ccccc21 the results were PK Bst >57 and YjeE inh inactive.
Screening CCCCC(=O)Nc1nn(C)c2nc3c(C)cccc3cc12 returned PK Bst >57 and YjeE inh inactive.
CC1=NOC2(C1)/C(=N/O)CCC/C2=N\O (stereo not given) was read as PK Bst >57 and YjeE inh inactive.
CCN1CCCC1CNC(=O)c1cc2c(C)nc3ccccc3c2o1 (stereo not given) was read as PK Bst >57 and YjeE inh inactive.
For Cc1ccc(-c2nc(N)n(S(C)(=O)=O)n2)cc1 the results were PK Bst >57 and YjeE inh inactive.
For CCOC(=O)C1CCN(C(=O)c2ccc3c(c2)OCO3)CC1 the results were PK Bst >57 and YjeE inh inactive.
CC1CCCC(C)N1C(=O)CN1C(=O)C(C)(C)Oc2ccc(C(=O)NC3CCCCC3)cc21 (stereo not given) was read as PK Bst >57 and YjeE inh inactive.
COc1ccc(CC(=O)Nc2oc(-c3ccccc3)c(-c3ccccc3)c2C#N)cc1OC was read as YjeE inh inactive.
`CC(C)c1cc(C(=O)Nc2ccc3c(c2)OCO3)no1` gave YjeE inh inactive.
`O=C(CN1C(=O)c2ccccc2C1=O)OCC(=O)N1CCc2ccccc2C1` gave PK Bst inconclusive and YjeE inh inactive.
For CCOC(=O)CSc1nnc(-c2ccc(S(=O)(=O)N3CCC(C)CC3)cc2)o1 the results were PK Bst >57 and YjeE inh inactive.
`CC(=O)c1ccc(N2CCN(C(=O)CCS(=O)(=O)c3ccc(C)cc3)CC2)cc1` gave PK Bst >57 and YjeE inh inactive.
Cc1nn(Cc2ccc(Cl)cc2Cl)c(C)c1NC(=O)c1nc2n(n1)C(C(F)F)CC(C)N2 (stereo not given) was read as PK Bst inactive and YjeE inh inactive.
`COc1ccc(N2C(=O)C3CCCN3C2c2ccc(C)cc2)cc1Cl` (stereo not given) gave PK Bst >57 and YjeE inh inactive.
`O=C(N1CCOCC1)N1CCN(c2nc(-c3ccccc3)cs2)CC1` gave YjeE inh inactive.
`O=C(Cc1c(C(=O)O)[nH]c2ccc(Cl)cc12)Nc1ccc2c(c1)OCCO2` gave PK Bst >57 and YjeE inh inactive.
For O=C(NCc1ccccc1)NC1(C(=O)Nc2ccc3c(c2)OCCO3)CCCCC1 the results were PK Bst >57 and YjeE inh inactive.
For Cc1sc2ncn(CC(=O)NCCCC(=O)N3CCN(c4ncccn4)CC3)c(=O)c2c1C the results were PK Bst >57 and YjeE inh inactive.
Screening Nc1cc(=O)[nH]c(SCc2cccc(Cl)c2)n1 returned YjeE inh inactive.
`Cc1ccc2c(c1)N(CCC(=O)NCC1COc3ccccc3O1)C(=O)CO2` (stereo not given) gave PK Bst >57 and YjeE inh inactive.
For CCN(CC)C(=O)COc1cccc2ccccc12 the results were PK Bst >57 and YjeE inh inactive.
For COc1ccc(-n2c(SCC(=O)Nc3cc(C)on3)nc3ccc(O)cc3c2=O)cc1OC the results were PK Bst >57 and YjeE inh inactive.
For CCC(C)Sc1nc2c(c(=O)[nH]c(=O)n2C)n1CC(O)COc1cccc2ccccc12 (stereo not given) the results were PK Bst >57 and YjeE inh inactive.
For Cc1csc(N2CCc3ccccc32)n1 the results were PK Bst inconclusive and YjeE inh inactive.
CCC1SC(=NC(=O)c2ccc(Cl)c(Cl)c2)NC1=O (stereo not given) was read as YjeE inh inactive.
Screening CC[C@@H]1OC(=O)[C@H](C)[C@H](O[C@@H]2C[C@](C)(OC)[C@H](O)[C@H](C)O2)[C@H](C)[C@H](O[C@@H]2O[C@@H](C)C[C@@H](N(C)C)[C@@H]2O)[C@](C)(O)C[C@H](C)C(=NOCOCCOC)[C@H](C)[C@H](O)[C@]1(C)O returned YjeE inh inactive.

Pulled by structure from above, six records:
Screening Nc1cc(=O)[nH]c(SCc2cccc(Cl)c2)n1 returned YjeE inh inactive.
Screening CC[C@@H]1OC(=O)[C@H](C)[C@H](O[C@@H]2C[C@](C)(OC)[C@H](O)[C@H](C)O2)[C@H](C)[C@H](O[C@@H]2O[C@@H](C)C[C@@H](N(C)C)[C@@H]2O)[C@](C)(O)C[C@H](C)C(=NOCOCCOC)[C@H](C)[C@H](O)[C@]1(C)O returned YjeE inh inactive.
For Cc1csc(N2CCc3ccccc32)n1 the results were PK Bst inconclusive and YjeE inh inactive.
For CCN(CC)C(=O)COc1cccc2ccccc12 the results were PK Bst >57 and YjeE inh inactive.
CCC1SC(=NC(=O)c2ccc(Cl)c(Cl)c2)NC1=O (stereo not given) was read as YjeE inh inactive.
For O=C(NCc1ccccc1)NC1(C(=O)Nc2ccc3c(c2)OCCO3)CCCCC1 the results were PK Bst >57 and YjeE inh inactive.

Continuation.
O=C(O)c1cc(S(=O)(=O)Nc2ccc3c(c2)OCCO3)c(Cl)cc1Cl was read as YjeE inh inactive.
O=C(c1nc2nc(-c3ccccc3)cc(C(F)(F)F)n2n1)N1CCCCC1 was read as YjeE inh inactive.
Oc1ccc(Cl)cc1Sc1cc(Cl)ccc1O was read as YjeE inh inactive.
CCOC(=O)c1nn(-c2ccccc2)c(C(=O)OCC)c1N was read as PK Bst >57 and YjeE inh inactive.
Screening Cc1cccc(N2C(=O)CC(N3CCN(Cc4ccc5c(c4)OCO5)CC3)C2=O)c1 (stereo not given) returned YjeE inh inactive.
Screening CC(C)(Oc1ccc(Cl)cc1)C(=O)NC1CCSC1=O (stereo not given) returned PK Bst >57 and YjeE inh inactive.
O=C(Nc1cccc(F)c1)N1CCC2(CC1)CCN(C(=O)c1cccc(F)c1)CC2 was read as YjeE inh inactive.
Screening Cc1ccc(S(=O)(=O)CCC(=O)OCC(=O)Nc2ncc(Cl)cc2Cl)cc1 returned PK Bst inactive and YjeE inh inactive.
For COC(=O)c1[nH]c2ccc(C)cc2c1NC(=O)CCN1CCN(C2CCCCC2)CC1 the results were PK Bst >57 and YjeE inh inactive.
Screening O=c1[nH]c2ccc(S(=O)(=O)N3CCN(Cc4ccccc4)CC3)cc2[nH]c1=O returned PK Bst >57 and YjeE inh inactive.
